Screening results (PubChem BioAssay)
FGF22 binding: FGF22 (human) thermal shift binding | Q9HCT0 | recombinant FGF22 thermal shift, SYPRO orange fluorescence; percent of sucrose octasulfate shift, DMSO zero | calls only at 9.99 µM | 340,000 tested, 1.5% active | AID 651658;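 active = melting point raised past a set limit in the mean and every replicate; inconclusive = no clear call; three in four hits are not shown here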
Target sequence (Q9HCT0 whole entry, looked up): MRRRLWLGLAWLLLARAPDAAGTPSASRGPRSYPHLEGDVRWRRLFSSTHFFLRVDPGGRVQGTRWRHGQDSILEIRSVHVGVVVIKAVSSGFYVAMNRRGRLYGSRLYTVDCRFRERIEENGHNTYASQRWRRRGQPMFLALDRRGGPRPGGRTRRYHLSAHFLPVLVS
UCH37 inh: inhibitors of human deubiquitinating enzyme UCH37. inhibition, % (test concentration not listed). 330,000 tested, 0.33% active. AID 588478. purified proteasome/UCH37, Ub-AMC cleavage fluorescence;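 active = mean of two replicates above 20%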;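 note: 0% = compound-free wells with enzyme and 100% = wells lacking proteasome; stock transfer was 100 nL into about 20 µL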
Target sequence (Q9Y5K5 whole entry, looked up): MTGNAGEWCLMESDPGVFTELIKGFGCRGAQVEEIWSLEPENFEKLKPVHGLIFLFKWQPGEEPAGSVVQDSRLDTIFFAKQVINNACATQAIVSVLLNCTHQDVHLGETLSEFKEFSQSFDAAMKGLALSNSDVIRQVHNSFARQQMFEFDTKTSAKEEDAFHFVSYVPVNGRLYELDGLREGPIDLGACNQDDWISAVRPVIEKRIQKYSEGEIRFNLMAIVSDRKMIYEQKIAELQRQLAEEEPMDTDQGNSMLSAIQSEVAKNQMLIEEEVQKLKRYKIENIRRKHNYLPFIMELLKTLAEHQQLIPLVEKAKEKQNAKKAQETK
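Assay system: Proteasome-bound UCH37. Buffer or medium: pH 7.4 Tris-HCl (50 mM) with ovalbumin, ATP-MgCl2, DTT. Incubation: 30 min preincubation with enzyme, 25 min cleavage at room temperature. Measured by: fluorescence, ex 355 nm, em 460 nm. Read-out basis: percent inhibition. Control set: wells without proteasome as full block, compound-free enzyme plus substrate as uninhibited.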
A1 inh: inhibitors of the anti-apoptotic protein A1, read as caspase activation. MEF A1-2A-BIM cells, Caspase-Glo 3/7 luminescence, 3 h; percent of clofoctol response, vehicle zero. caspase activation, % (no concentration beside the values). 330,000 tested, 0.066% active. AID 2462;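 active = over half of replicate activation scores above 10%, or exactly half above 10 with the replicate mean above 10; inconclusive = replicate mean below 10 yet half the replicates above 10; inactive = over half of replicates below 10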;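 note: wells of about 30 µL received 50 nL stock; many hits fall short of the cut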
Ecoli rRNA inh: inhibitors of bacterial rRNA selective over humanized ribosomes. E. coli WT GFP vs humanized-ribosome RFP mutants, fluorescence, 24 h; hits give low values; DMSO median 0, no signal -100. GFP signal change (wild-type ribosome), % (concentration not given with the values). 350,000 tested, 1.6% active. AID 720706;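 active = significant combined selectivity score with lowered wild-type GFP, culture density cut under 30%, mutant RFP and density less affected; inactive = any of these conditions unmet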; note: one replicate is shown; some compounds called inactive have numbers as strong as hits
Beta cell apopt: blocks beta cell apoptosis; INS-1E cytokine-induced death, ATP luminescence, 48 h; percent of positive-control rescue, neutral wells zero; protection from apoptosis, % (concentration not given with the values); 300,000 tested, 0.8% active; AID 435005;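 active = all replicates at 75% or more, or half of them and the mean; inconclusive = half reach 75% but not the mean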;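 note: 0% = cytokine-treated negative control wells and 100% = positive control rescue; higher means more ATP so stronger rescue from cytokine killing; wells of about 40 µL received 100 nL stock; the first replicate is given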
T cruzi repl: blocks replication of Trypanosoma cruzi. T. cruzi beta-gal in NIH3T3, luminescence, 90 h. inhibition, % (no concentration beside the values). 300,000 tested, 1.4% active;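 active = mean inhibition across valid replicates above about 55%, limit read from the data; inconclusive = mean below that limit but half or more replicates reach it; inactive = mean below it, under half of replicates reach it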;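 note: signal also drops with host cell toxicity which is not excluded here; 0% = plate median of DMSO wells and 100% = zero luminescence signal; higher percent means less beta-gal luminescence so fewer parasites; stock transfer was 50 nL into about 50 µL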
AF4-AF9 inh: blocks AF4 peptide binding to human AF9 | P42568 | AlphaScreen, biotin-AF4 peptide binding to FLAG-AF9 | inhibition, % at 10 µM | 350,000 tested, 0.47% active;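 active = every replicate reaching a set inhibition limit, whatever the replicate mean, cut at about 25% in these data; inconclusive = mean inhibition reaches that limit but some replicates miss it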;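 note: 0% = plate neutral control median and 100% = total signal loss; the record names both 10 and 1 µM as test concentration; the first replicate is given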
Target sequence (P42568 whole entry, looked up): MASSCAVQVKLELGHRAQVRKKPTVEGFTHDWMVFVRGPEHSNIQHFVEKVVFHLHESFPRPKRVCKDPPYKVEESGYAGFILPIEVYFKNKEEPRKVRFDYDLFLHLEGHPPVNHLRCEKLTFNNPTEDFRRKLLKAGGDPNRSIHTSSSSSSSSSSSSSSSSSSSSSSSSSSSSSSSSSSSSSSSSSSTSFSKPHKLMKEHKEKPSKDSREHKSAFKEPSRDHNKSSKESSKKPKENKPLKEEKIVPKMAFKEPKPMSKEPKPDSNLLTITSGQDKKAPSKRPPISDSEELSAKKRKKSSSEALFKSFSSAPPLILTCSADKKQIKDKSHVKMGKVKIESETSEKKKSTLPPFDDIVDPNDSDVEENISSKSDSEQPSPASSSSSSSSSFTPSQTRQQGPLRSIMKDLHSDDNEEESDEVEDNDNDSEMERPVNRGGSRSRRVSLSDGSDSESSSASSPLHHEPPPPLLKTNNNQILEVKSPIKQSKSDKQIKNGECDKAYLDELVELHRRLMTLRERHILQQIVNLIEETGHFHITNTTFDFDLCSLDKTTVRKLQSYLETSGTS
E coli growth: inhibitors of Escherichia coli growth. OD600, 23 h; hits give low values. OD600 absorbance (test concentration not listed). 330,000 tested, 0.21% active;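 active = OD600 absorbance below the run mean of sample wells minus 3.6 SD, in any replicate, cut at about 0.56 in these data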;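 note: stock transfer was 300 nL into about 60 µL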
Ecoli rRNA inh OD600: recorded beside Ecoli rRNA inh, whose call it bears; OD600 change, %; measured here: OD600 growth;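 optical density of the mix in the first replicate; 0 = DMSO median and -100 = no signal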
Ecoli rRNA inh RFP: recorded beside Ecoli rRNA inh, whose call it bears; RFP signal change, %; measured here: RFP humanized mutant strains;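 first replicate; 0 = DMSO median and -100 = no signal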
Starred values were filed as active, the others as inactive; & = joins results of further samples. These rows are one share of the data; rates above refer to the full screens.

`CC1CCCN(C(=O)CCNC(=O)Cn2cnc3ccccc3c2=O)C1` (centres undefined) gave FGF22 binding inactive, UCH37 inh 0.0, A1 inh -1.6, Ecoli rRNA inh 10, Beta cell apopt -4, T cruzi repl 4, AF4-AF9 inh -2.2, E coli growth 0.69, Ecoli rRNA inh OD600 8 and Ecoli rRNA inh RFP 0.5.
Screening O=C(CCCCCn1c(=O)[nH]c2ccsc2c1=O)NCc1ccc2c(c1)OCO2 returned UCH37 inh 4.6, A1 inh 2.6, T cruzi repl 10 and E coli growth 0.66.
Screening COc1ccc(CC(=O)Nc2ccc3c(c2)CCC3)cc1OC returned UCH37 inh 3.2, A1 inh inconclusive, Beta cell apopt 6, T cruzi repl 11 and E coli growth 0.69.
For CC(=O)Nc1ccc(NC(=O)c2cc(-c3cc(C)cc(C)c3O)n[nH]2)cc1 the results were FGF22 binding inactive, UCH37 inh 0.6, A1 inh 0.5, Ecoli rRNA inh -18, Beta cell apopt 0, T cruzi repl 7, AF4-AF9 inh -0.8, E coli growth 0.68, Ecoli rRNA inh OD600 -15 and Ecoli rRNA inh RFP 3.3.
`CC1C(C#N)=C(SCC(N)=O)NC2=C1C(=O)CC(C)(C)C2` (centres undefined) gave FGF22 binding inactive, UCH37 inh -21, A1 inh 0.0, Ecoli rRNA inh 6, Beta cell apopt -6, T cruzi repl -12, AF4-AF9 inh -6.8, E coli growth 0.71, Ecoli rRNA inh OD600 -2 and Ecoli rRNA inh RFP 2.2.
N#Cc1c(N)c(C#N)c(-c2ccc3c(c2)OCO3)c2c1CCCC2 was read as UCH37 inh -56, A1 inh 0.1, Beta cell apopt 3, T cruzi repl 23 and E coli growth 0.67.
For CC(C)NCCOCCOc1ccccc1F the results were UCH37 inh -6.8, A1 inh 0.8, Beta cell apopt -12, T cruzi repl 1 and E coli growth 0.77.
`Cc1ccccc1N=C1NC(=O)CC(c2ccccc2)S1` (centres undefined) gave UCH37 inh 1.6, A1 inh -0.1, Beta cell apopt -10, T cruzi repl -8 and E coli growth 0.75.
Screening Cc1cccc(-c2csc(NC(=O)c3cnccn3)c2C(=O)OC(C)C)c1 returned UCH37 inh -0.9, A1 inh 0.1, Beta cell apopt 2, T cruzi repl 11 and E coli growth 0.72.
CCOC(=O)C1CCCN(CCC(=O)Nc2ccc(Br)cc2)C1 (centres undefined) was read as FGF22 binding inactive, UCH37 inh 1.7, A1 inh -0.4, Ecoli rRNA inh 7, Beta cell apopt -3, T cruzi repl 3, AF4-AF9 inh -0.3, E coli growth 0.65, Ecoli rRNA inh OD600 0 and Ecoli rRNA inh RFP 0.7.
`CCONC(=NC)c1nonc1N` gave FGF22 binding inactive, UCH37 inh 2.3, A1 inh -0.8, Ecoli rRNA inh 9, Beta cell apopt -2, T cruzi repl -21, AF4-AF9 inh 0.5, E coli growth 0.69, Ecoli rRNA inh OD600 8 and Ecoli rRNA inh RFP 0.1.
For C/C(CCC1CC(C)(C)OC1=O)=N\NC(N)=S (centres undefined) the results were FGF22 binding inactive, A1 inh 0.6, Ecoli rRNA inh 7, Beta cell apopt 2, T cruzi repl -20, AF4-AF9 inh -2.0, Ecoli rRNA inh OD600 10 and Ecoli rRNA inh RFP -0.9.
Cc1onc(-c2c(F)cccc2Cl)c1C(=O)N1C=CC(C(F)(F)F)=NCC1 was read as UCH37 inh 6.8, A1 inh 0.9, Beta cell apopt -1, T cruzi repl 0 and E coli growth 0.76.
`CCc1nn(C(CC)C(=O)NCCc2ccc(OC)cc2OC)c(=O)c2cc3occc3n12` (centres undefined) gave FGF22 binding inactive, UCH37 inh 1.7, A1 inh 0.3, Ecoli rRNA inh -29, Beta cell apopt -10, T cruzi repl 12, AF4-AF9 inh 2.5, E coli growth 0.57, Ecoli rRNA inh OD600 -27 and Ecoli rRNA inh RFP -2.7.
Screening Cc1cc(C)n2nc(SCc3cc(=O)oc4ccc5ccccc5c34)nc2n1 returned A1 inh -0.2, Beta cell apopt -4, T cruzi repl 1 and E coli growth 0.74.
`COc1cc2c(C#N)c(N3CCCC3)nc(N)c2c(N)n1` gave FGF22 binding inactive, UCH37 inh -279&-48, A1 inh 0.5&0.6, Ecoli rRNA inh 7&4, Beta cell apopt -3&7, T cruzi repl 16&4, AF4-AF9 inh -27&3.3, E coli growth 0.69&0.7, Ecoli rRNA inh OD600 16&7 and Ecoli rRNA inh RFP 5.7&11.
COC(=O)CSc1nc2nc(C)cc(C)n2n1 was read as FGF22 binding inactive, UCH37 inh 1.9, A1 inh 0.5, Ecoli rRNA inh 17, Beta cell apopt -1, T cruzi repl -7, AF4-AF9 inh -4.5, E coli growth 0.7, Ecoli rRNA inh OD600 15 and Ecoli rRNA inh RFP 0.1.
CC(=O)NC12CC3CC(C1)CC(C(=O)N1CCN(S(=O)(=O)c4ccc(C(C)C)cc4)CC1)(C3)C2 was read as FGF22 binding inactive, UCH37 inh -0.4, A1 inh 1.2, Ecoli rRNA inh 5, Beta cell apopt 3, T cruzi repl 11, AF4-AF9 inh 6.9, E coli growth 0.7, Ecoli rRNA inh OD600 7 and Ecoli rRNA inh RFP 1.2.
Screening O=C(Cn1nc(-c2cccc(Cl)c2)ccc1=O)Nc1ccccc1Br returned FGF22 binding inactive, UCH37 inh -1.2, A1 inh 0.6, Ecoli rRNA inh 6, Beta cell apopt -4, T cruzi repl 0, AF4-AF9 inh -2.7, E coli growth 0.68, Ecoli rRNA inh OD600 6 and Ecoli rRNA inh RFP 0.0.
Screening C=CCNc1oc(/C=C/c2ccccc2)nc1C#N returned FGF22 binding inactive, UCH37 inh inactive, A1 inh -1.8, Ecoli rRNA inh -28, Beta cell apopt 4, T cruzi repl 2, AF4-AF9 inh -61, E coli growth 0.67, Ecoli rRNA inh OD600 -42 and Ecoli rRNA inh RFP -13.
For CCOC(=O)Cc1csc(NC(=O)c2sc3nc4ccc(C)cc4cc3c2N)n1 the results were UCH37 inh 5.9, A1 inh 0.8, Beta cell apopt -2, T cruzi repl -9 and E coli growth 0.68.
`O=C(CN1C(=O)NC(c2ccccc2)(c2ccccc2)C1=O)N1CCCCC1` gave FGF22 binding inactive, UCH37 inh -1.1, A1 inh inconclusive, Ecoli rRNA inh -26, Beta cell apopt 0, AF4-AF9 inh 0.5, E coli growth 0.72, Ecoli rRNA inh OD600 -24 and Ecoli rRNA inh RFP -7.1.
COc1ccc(S(=O)(=O)N(C)C[C@H]2Oc3c(NC(=O)NC4CCCCC4)cccc3C(=O)N([C@H](C)CO)C[C@@H]2C)cc1 was read as FGF22 binding inactive, UCH37 inh 4.9, A1 inh -0.1, Ecoli rRNA inh -7&-4, Beta cell apopt -4, AF4-AF9 inh 0.8&-2.1, Ecoli rRNA inh OD600 -4&0 and Ecoli rRNA inh RFP 0.6&15.
Cc1ccc2cc(C#N)c(N3CCCN(C(=S)NCCCN(C)C)CC3)nc2c1 was read as FGF22 binding inactive, A1 inh -0.1, Ecoli rRNA inh 12, Beta cell apopt -8, T cruzi repl 45, AF4-AF9 inh 9.2, Ecoli rRNA inh OD600 8 and Ecoli rRNA inh RFP 21.
For Cn1cccc1C(=O)NCC(c1ccco1)N1CCCCC1 (centres undefined) the results were FGF22 binding inactive, UCH37 inh 1.5, A1 inh -0.3, Ecoli rRNA inh 7, T cruzi repl -12, AF4-AF9 inh 3.4, E coli growth 0.7, Ecoli rRNA inh OD600 9 and Ecoli rRNA inh RFP 3.2.
`CC(C)NC(=O)CC1OC(=O)c2ccccc21` (centres undefined) gave UCH37 inh 5.1, A1 inh 0.0, Beta cell apopt -2, T cruzi repl -13 and E coli growth 0.69.
For CC1(C)Oc2cc3oc(=O)ccc3cc2C[C@@H]1O the results were FGF22 binding inactive, UCH37 inh -73, A1 inh 0.5, Ecoli rRNA inh 4, Beta cell apopt -3, AF4-AF9 inh -1.8, E coli growth 0.74, Ecoli rRNA inh OD600 10 and Ecoli rRNA inh RFP -8.3.
Screening CN1C(c2ccccc2)CC(=NO)CC1c1ccccc1 (centres undefined) returned FGF22 binding inactive, UCH37 inh -0.2, A1 inh 0.4, Ecoli rRNA inh -4, T cruzi repl -5, AF4-AF9 inh 0.9, E coli growth 0.68, Ecoli rRNA inh OD600 5 and Ecoli rRNA inh RFP -0.6.
`CC(C)(C)NC(=O)COC(=O)c1cc(S(=O)(=O)N2CCCCC2)ccc1N1CCOCC1` gave UCH37 inh 1.0, A1 inh -0.3, Beta cell apopt -2, T cruzi repl 8 and E coli growth 0.72.
For Cc1cc(C)nc(SCC(=O)n2c3c(c4ccccc42)CCCC3)n1 the results were UCH37 inh -1.9, A1 inh -0.1, Beta cell apopt -3, T cruzi repl 22 and E coli growth 0.67.
Screening Cc1cc(C(C)c2ccccc2)c(O)c(CN2CCOCC2)c1C (centres undefined) returned UCH37 inh 6.4, A1 inh 1.8, Beta cell apopt 0, T cruzi repl -1 and E coli growth 0.73.
Screening CC(C)(C)NC(=O)NC(=O)CSc1ncn[nH]1 returned FGF22 binding inactive, UCH37 inh 3.0, A1 inh -0.1, Ecoli rRNA inh 16, Beta cell apopt 3, T cruzi repl -2, AF4-AF9 inh -2.7, E coli growth 0.67, Ecoli rRNA inh OD600 11 and Ecoli rRNA inh RFP -5.8.
COc1ccc(CNC(=O)c2ccc(C)o2)cc1 was read as UCH37 inh 1.2, A1 inh 0.3, Beta cell apopt 1, T cruzi repl -3 and E coli growth 0.62.
For C=CCOC(=O)/C(=C\c1ccccc1)NC(=O)c1ccc(C)cc1 the results were FGF22 binding inactive, UCH37 inh 7.6, A1 inh -0.1, Ecoli rRNA inh -5, Beta cell apopt 0, T cruzi repl 2, AF4-AF9 inh -4.6, E coli growth 0.66, Ecoli rRNA inh OD600 -1 and Ecoli rRNA inh RFP -1.7.
Screening COc1ccc(Cn2c(=O)[nH]c3cc(C(=O)N4CCN(c5ccccc5)CC4)ccc3c2=O)cc1 returned UCH37 inh -3.5, A1 inh 1.1, Beta cell apopt -9, T cruzi repl 3 and E coli growth 0.7.
CC(C)(C)c1ccc(OCCCNCc2ccccc2)cc1 was read as UCH37 inh 4.1, A1 inh -1.3, Beta cell apopt 8, T cruzi repl 20 and E coli growth 0.64.

Random excerpt: two records from the list, in no set order.
Screening Cc1cc(C(C)c2ccccc2)c(O)c(CN2CCOCC2)c1C (centres undefined) returned UCH37 inh 6.4, A1 inh 1.8, Beta cell apopt 0, T cruzi repl -1 and E coli growth 0.73.
For C=CCOC(=O)/C(=C\c1ccccc1)NC(=O)c1ccc(C)cc1 the results were FGF22 binding inactive, UCH37 inh 7.6, A1 inh -0.1, Ecoli rRNA inh -5, Beta cell apopt 0, T cruzi repl 2, AF4-AF9 inh -4.6, E coli growth 0.66, Ecoli rRNA inh OD600 -1 and Ecoli rRNA inh RFP -1.7.
